RE007 growth inh = less growth of the S. pombe RE007 Vpr strain; S. pombe RE007 Vpr strain, BacTiter-Glo ATP luminescence, 24 h; control for the full effect not named in the record; Potency, µM (doses to about 92.2 µM), without a hit: at the highest dose activity change, negative = less growth; 360,000 tested, 0.21% active; AID 651644; active = well fitted falling curve with a large enough effect; inconclusive = small, poorly fitted or top-dose-only effect; inactive = no such curve, though single readings can be large or run the other way;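 also: % is scaled to controls: 0 for no effect and ±100 for the full control effect; nearly all actives have a fitted effect of over 50% in size; the assay follows cell death caused by Vpr and the record does not say whether a fall means rescue or toxicity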
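Fission yeast strain RE007, carrying one chromosomally integrated HIV-1 vpr copy, was seeded at OD 0.01 in PMG+AL medium with 23 nL pinned compound. After 24 h at 30 °C and 99% humidity, viability was read by BacTiter-Glo luminescence.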
MARV entry inh = Marburg virus entry inhibition; Potency, µM (top dose mostly 37.8 µM), without a hit: at the top dose activity change, negative = inhibition, usual class: inhibitors; Marburg virus pseudotyped entry inhibition, cell reporter; control for the full effect not named in the record; about a third of the inactives were read at about 46 µM; 300,000 tested, 1.8% active; AID 540276; active = well fitted inhibition curve with a large enough effect; inconclusive = small, poorly fitted or top-dose-only effect, or effect the other way; inactive = flat fitted curve, though single readings scatter; tested in HEK293 cells; about a fifth of its hits are not listed in these tables; also: % is scaled to controls: 0 for no effect and ±100 for the full control effect; luciferase read-out
Cruzain inh Det = cruzain (T. cruzi) inhibition with detergent | P25779 | AID 1478 | 200,000 tested, 0.43% active | Potency, µM, for the others: max response, negative = inhibition, most hits filed as inhibitors | purified cruzain, Z-FR-AMC fluorescence, 0.01% Triton; active = well fitted curve in the direction sought with a large enough effect; inconclusive = small, poorly fitted or top-dose-only effect, or another doubt; inactive = no such curve, though single readings can be large; an effect the other way counts as inactive or inconclusive;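 also: plate controls were neutral wells for no effect and buffer without enzyme for full effect; nearly all actives have a fitted effect of over 40% in size; top concentration of the series not given in the record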
Target sequence (P25779 123-467 limits assumed): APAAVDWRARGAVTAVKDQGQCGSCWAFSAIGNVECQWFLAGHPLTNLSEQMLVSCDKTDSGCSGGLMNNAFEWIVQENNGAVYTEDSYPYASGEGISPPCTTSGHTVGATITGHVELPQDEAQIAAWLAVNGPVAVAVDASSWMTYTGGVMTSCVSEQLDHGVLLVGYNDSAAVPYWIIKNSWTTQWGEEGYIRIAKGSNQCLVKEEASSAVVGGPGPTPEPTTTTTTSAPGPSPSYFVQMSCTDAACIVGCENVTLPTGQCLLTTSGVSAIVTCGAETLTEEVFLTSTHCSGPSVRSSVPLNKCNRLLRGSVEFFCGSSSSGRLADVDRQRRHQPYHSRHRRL
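Cysteine protease activity tested under reducing, mildly acidic conditions (100 mM sodium acetate pH 5.5, 5 mM DTT) plus 0.01% Triton X-100. Cruzain 1.5 nM; substrate Z-FR-AMC 2 uM; 15 min compound preincubation at room temperature.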
LASV entry inh = Lassa virus entry inhibition. Lassa virus pseudotype entry inhibition, cell reporter; control for the full effect not named in the record. Potency, µM (top dose mostly 37.9 µM), inactives show at the highest dose activity change, negative = inhibition, most hits filed as inhibitors. 300,000 tested, 1.2% active. AID 540256; active means well fitted inhibition curve with a large enough effect; inconclusive means small, poorly fitted or top-dose-only effect, or effect the other way; inactive means flat fitted curve, though single readings scatter; tested in HEK293 cells; also: % is scaled to controls: 0 for no effect and ±100 for the full control effect; nearly all actives have a fitted effect of over 50% in size; luciferase read-out
Cruzain noTriton = blocks cruzain activity in detergent-free assay. P25779. purified cruzain, Z-FR-AMC fluorescence, no detergent. Potency, µM, inactives show max response, negative = inhibition, most hits filed as inhibitors. 200,000 tested, 2.3% active. AID 1476; active = well fitted curve in the direction sought with a large enough effect; inconclusive = small, poorly fitted or top-dose-only effect, or another doubt; inactive = no such curve, though single readings can be large; an effect the other way counts as inactive or inconclusive;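 also: plate controls were enzyme without inhibitor for no effect and buffer without enzyme for full effect; nearly all actives have a fitted effect of over 40% in size; top concentration of the series not given in the record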
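Purified cruzain at 1.5 nM, pre-incubated 15 min with compound at room temperature in 100 mM sodium acetate pH 5.5, 5 mM DTT, 0.00005% Triton X-100. Reaction started with 2 uM Z-FR-AMC; AMC fluorescence increase over 60 s gives rate.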
StopGo reporter = lowers the luciferase signal of an FMDV 2A StopGo reporter. human cells with a luciferase reporter of 2A StopGo recoding; control for the full effect not named in the record. Potency, µM (titrated, usually from 57.9 µM), for inactives: at the top dose signal change, negative = less light. AID 1159524. 410,000 tested, 1.2% active; active = well fitted falling curve with a large enough effect; inconclusive = small, poorly fitted or top-dose-only effect; inactive = no such curve, though single readings can be large or run the other way; tested in HEK293T cells; also: % is scaled to controls: 0 for no effect and ±100 for the full control effect; nearly all actives have a fitted effect of over 45% in size; luciferase light after 4 h
NS1 inh = inhibitors of influenza NS1 protein function; S. cerevisiae slowed by influenza A NS1, growth recovery by OD600; Potency, µM (doses to about 46.1 µM), without a hit: at the top dose activity, positive = more growth; 270,000 tested, 0.4% active; also: actives are rising curves; nearly all actives have a fitted effect of over 50% in size
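Compounds were scored for reversing the slow growth caused by influenza A NS1 in S. cerevisiae, measured by optical density at 600 nm. Assay medium contained 2% galactose at pH 6.0; NS1-free yeast of the same strain were the positive control.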
SARS PLpro yeast = blocks SARS-CoV papain-like protease in a yeast assay; S. cerevisiae expressing SARS-CoV PLpro, growth rescue; control for the full effect not named in the record; Potency, µM (series often up to 32.9 µM), inactives show at the highest dose activity, positive = growth rescue; 330,000 tested, 0.19% active; also: 0% is about no effect; nearly all actives have a fitted effect of over 55% in size; growth read by luminescence after 48 h
Starred values were filed as active, the others as inactive; ? = inconclusive; . = not tested or not shown; & = joins results of further samples; [ ] = remark or other dose. Unless noted, calls follow the shape of the dose curve; as a rule, active means well fitted rising curve with a large enough effect; inconclusive means small, poorly fitted or top-dose-only effect; inactive means no such curve, though single readings can be large or run the other way. Potency is read from the fitted curve at half-maximal effect. Not a hit list, and some 4.7% of all compounds hit somewhere here.

SMILES | RE007 growth inh | MARV entry inh | Cruzain inh Det | LASV entry inh | Cruzain noTriton | StopGo reporter | NS1 inh | SARS PLpro yeast
CCCCNCC1C(Oc2ccc(Cl)cc2)C(=O)N1c1ccccc1C (stereo not given) | 0% | ? | . | -20% | . | -23% | . | -4%
O=C(Nc1cccnc1)c1ccc(Br)c(S(=O)(=O)N2CCCC2)c1 | 3% | ? | . | -27% | . | ? | -2% | 3%
O=C(Nc1cccnc1)c1cnc2ccccc2n1 | -18% | ? | 1.3% | ? | 1% | 18% | -15% | 8%
N#CCc1c(C#N)c(N)nc(N2CCN(c3ccc(F)cc3)CC2)c1C#N | 5% | ? | -5.7% | ? | 16µM* | ? | 11% | -1%
O=C(COC(=O)c1ccccc1NCCO)NCCC1=CCCCC1 | 8% | 9% | . | 8% | . | 19% | . | -1%
COc1ccc2c(c1)SCC/C2=C\CN1C(=O)CCC1=O | 3% | 2% | -3.9% | ? | 8% | -11% | 4% | 16%
CCOC(=O)c1c(C)[nH]c(C(=O)CSc2nnc(C3CC3)n2N)c1C | -8% | -26% | -3.5% | -11% | -9% | 25% | 4% | 14%
CC(C)=CCN1CCN(Cc2cccc3nonc23)CC1CCO (stereo not given) | 9% | ? | . | -18% | . | -10% | -2% | 1%
O=C(CNS(=O)(=O)c1ccccc1)Nc1ccc(C(F)(F)F)cc1 | 6% | 24% | -25% | 3% | -6% | -13% | -4% | 2%
COc1ccccc1Nc1nnc(SCC(=O)N2CCCC2=O)s1 | 0% | 9% | 1.5% | 26% | -5% | 64%[activator] | -2% | 0%
COCCNC(=O)C(=O)c1c(-c2ccccc2)[nH]c2ccccc12 | -11% | -15%[46.1 µM] | . | 1% | . | 3% | . | -5%
Cn1nc([N+](=O)[O-])nc1Oc1ccc2ccccc2c1 | -2% | -7% | 5.9% | 0% | -4% | -6% | 2% | 10%
CCN(CC)S(=O)(=O)c1ccc(C(=O)OCCNC(=O)c2cccnc2)cc1 | 22% | 3% | 3.9% | -2% | 2% | -14% | -6% | -3%
O=C(NCCc1ccccc1)c1nc2nc(-c3cccs3)cc(C(F)(F)F)n2n1 | -4% | ? | 6.4% | -4% | ? | 18% | -2% | 11%
CC(C)c1ccc(S(=O)(=O)c2ccc(NN)cc2)cc1 | -2% | -18%[46.1 µM] | . | 0%[46.1 µM] | . | -8% | . | -1%
CC(C)(C)c1ccc(OCCC(=O)NCCc2ccc(S(N)(=O)=O)cc2)cc1 | 15% | . | . | . | . | ? | -13% | 0%
CCN(CC)C1=NC=CC(c2ccccc2)=CC1C (stereo not given) | 19% | ? | 1.6% | 6% | -4% | -25% | -10% | 1%
O=[N+]([O-])c1ccc(Cl)c(-c2ccc(/C=N/n3cnnc3)o2)c1 | 5% | -16%[46.1 µM] | . | ? | . | 0% | -6% | -3%
CCOc1ccc(/C=C/c2nc(C#N)c(N3CCN(CC)CC3)o2)cc1 | . | -13%[46.1 µM] | -9.5% | -3%[46.1 µM] | -3% | -4% | . | .
Cc1ccn2c(=O)c(C(=O)NCCC3=CCCCC3)c(O)nc2c1 | -16% | . | . | . | . | 14% | -18% | -10%
O=C(NCC(c1ccc(F)cc1)N1CCOCC1)c1cccnc1Sc1ccc(Cl)cc1 (stereo not given) | -15% | ? | . | -15% | . | -24% | . | -5%
O=C(COC(=O)/C=C/c1ccc(Cl)cc1)NCCN1C(=O)CSC1=O | -2% | -9% | . | -2% | . | 1% | . | -6%
Clc1ccc2[nH]c3c(c2c1)CCNC3 | -10% | . | . | . | . | -16% | -1% | 5%
Cc1ccc(CNC(=O)C(NS(=O)(=O)c2cccc3nsnc23)C(C)C)cc1 (stereo not given) | 9% | . | . | . | . | -24% | 2% | 6%
CC1CCCCC1N=CC1=C(O)CC(C)(C)CC1=O (stereo not given) | -1% | 4% | 2.8% | 13% | 10% | . | 1% | 0%
C#CCNC(=O)C1=C[C@H](c2ccccc2)C[C@H](OCCCCO)O1 | 1% | . | . | . | . | 10% | 1% | 1%
Cc1ccc(-n2nnnc2Sc2ccc(S(=O)(=O)NCCN(C)C)cc2[N+](=O)[O-])cc1 | . | 9.2µM* | -2.2% | ? | -13% | 13µM* | 9% | ?
CCC1CCCCN1CCCNC(=O)Cn1c(=O)c2cccn2c2cccnc21 (stereo not given) | -7% | . | . | . | . | 3% | 0% | ?
COc1ccc(C(=O)OC2CC[C@@]3(C)C4CCC5[C@]6(O)CC(O)[C@@]7(O)C(CN8CC(C)CCC8[C@@]7(C)O)[C@]6(O)C[C@@]53O[C@]24O)cc1OC (stereo not given in full) | -5% | -25%[46.1 µM] | . | 21%[46.1 µM] | . | 2% | -8% | 0%
Cc1ccc(C(=O)CC(=O)c2cccc(F)c2)c(O)c1 | -21% | ? | 1.1% | ? | ? | 41%[activator] | -80% | -3%
CCN(CC)C(=O)COc1cc(C)cc2oc(=O)c3c(c12)CCCC3 | 14% | -6%[46.1 µM] | . | 4%[46.1 µM] | . | -27% | 1% | -3%
Cc1csc(SCC(=O)NC2CCCCC2)n1 | 6% | -22% | 0.7% | -3% | 3% | 7% | -5% | -1%
O=C1CSC(c2ccc(Cl)cc2)N1c1cccnc1 (stereo not given) | 8% | -5% | . | 0% | . | -10% | 0% | 0%
CN1CCN(C(=S)SCC(=O)Nc2nc(-c3ccccc3)c(-c3ccccc3)o2)CC1 | 4% | ? | -4.4% | -15% | 27% | -22% | 19% | 6%
COc1ccccc1/C=N/NC(=O)c1sc(C)nc1C | -16% | ? | . | -15%[46.1 µM] | . | -7% | 2% | -2%
Cc1cccc2cc(=O)[nH]c(C)c12 | -5% | -2% | 2.8% | -1% | -6% | 8% | 4% | -4%
CCCCn1c(SCC(=O)NC(=O)NCc2ccco2)nc2cc(S(N)(=O)=O)ccc21 | -2% | 0%&-7% | -8.9% | 1% | -6% | . | -9% | -5%
Oc1c(Br)c(Br)c(Br)c(Br)c1Br | ? | . | -8.9% | . | ? | -23% | . | 1%
COc1ccc(CNC(=O)C(C)N2C(=O)NC3(CCCCCCC3)C2=O)cc1 (stereo not given) | -6% | -9% | . | -17% | . | -12% | . | -2%
Cc1ccc(S(=O)(=O)N2CCC(C(=O)Nc3ccc(S(=O)(=O)N4CCOCC4)cc3)CC2)cc1 | -18% | ? | . | ? | . | 0% | . | .
CC1(C)Cc2cccc(OCC(=O)Nc3cccnc3Cl)c2O1 | 1% | -13% | 1.3% | 13% | -4% | -11% | -19% | -6%
COc1ccc(CCNc2nc3cc(OC)c(OC)cc3c3nc(-c4cccnc4)nn23)cc1OC | . | -4%[46.1 µM] | -0.2% | . | 1% | -18% | . | .
Cn1c(=O)n(-c2cccc(Cl)c2)c(=O)c2c3c(sc21)COC(C)(C)C3 | -3%[3.69 µM] | ? | 1.5% | -3% | 0% | 2% | 6% | 6%
COc1ccc(OC)c(S(=O)(=O)N2CCC(C(=O)NCc3ccc4c(c3)OCO4)CC2)c1 | -4% | ? | . | -3% | . | -4% | -14% | 2%
Cc1c(C(=O)NCc2cccc(Cl)c2)sc2ncnc(N(C)C3CCCCC3)c12 | . | . | -3.3% | -4%[46.1 µM] | -6% | -17% | . | .
Cn1cccc1Cc1nnc(SCC(=O)N2CCN(c3ccccc3)CC2)n1-c1ccc(F)cc1 | 1% | 0%&-13% | -4.5% | -2% | ? | -23% | 4% | 0%
CC(=O)c1c(C)n(-c2ccc(Cl)cc2)c2ccc(OC(=O)COc3ccccc3)cc12 | . | . | -2.9% | 11%[46.1 µM] | 2% | -11% | . | .
CCOC(=O)c1c(C)[nH]c(C)c1-c1ccccc1OC | 28% | ? | 2.0% | -2% | 13% | 0% | 8% | -3%
COc1ccc(CCNC(=O)CCCCn2c(=O)c3ccccc3n(CC(=O)Nc3ccccc3C)c2=O)cc1OC | . | -6%[46.1 µM] | -1.7% | 19%[46.1 µM] | -8% | -1% | . | .
COc1ccc(/C=N/NC(=O)CCc2c(C)n[nH]c2C)cc1O | -4%[3.69 µM] | -1% | 0.8% | -6% | -6% | 7% | 15% | 4%
COc1ccccc1C(CC(=O)Nc1nccs1)c1ccco1 (stereo not given) | -5% | -18% | -7.5% | -4% | -23% | -21% | 3% | 6%
CC1(C)CC(N(Cc2ccccc2)C(=O)Cc2ccccc2)CCO1 (stereo not given) | 17% | . | . | . | . | 4% | 5% | 5%

Compounds shown so far that contain an aryl thioether with sulfur outside any ring, in the order listed:
SMILES | RE007 growth inh | MARV entry inh | Cruzain inh Det | LASV entry inh | Cruzain noTriton | StopGo reporter | NS1 inh | SARS PLpro yeast
CCOC(=O)c1c(C)[nH]c(C(=O)CSc2nnc(C3CC3)n2N)c1C | -8% | -26% | -3.5% | -11% | -9% | 25% | 4% | 14%
COc1ccccc1Nc1nnc(SCC(=O)N2CCCC2=O)s1 | 0% | 9% | 1.5% | 26% | -5% | 64%[activator] | -2% | 0%
O=C(NCC(c1ccc(F)cc1)N1CCOCC1)c1cccnc1Sc1ccc(Cl)cc1 (stereo not given) | -15% | ? | . | -15% | . | -24% | . | -5%
Cc1ccc(-n2nnnc2Sc2ccc(S(=O)(=O)NCCN(C)C)cc2[N+](=O)[O-])cc1 | . | 9.2µM* | -2.2% | ? | -13% | 13µM* | 9% | ?
Cc1csc(SCC(=O)NC2CCCCC2)n1 | 6% | -22% | 0.7% | -3% | 3% | 7% | -5% | -1%
CCCCn1c(SCC(=O)NC(=O)NCc2ccco2)nc2cc(S(N)(=O)=O)ccc21 | -2% | 0%&-7% | -8.9% | 1% | -6% | . | -9% | -5%
Cn1cccc1Cc1nnc(SCC(=O)N2CCN(c3ccccc3)CC2)n1-c1ccc(F)cc1 | 1% | 0%&-13% | -4.5% | -2% | ? | -23% | 4% | 0%

Screening data as filed in PubChem BioAssay.
